PGK inhibitor: T. brucei PGK inhibition; 380,000 compounds, 0.043% hits; P07378; PGK/GAPDH coupled, Kinase-Glo luminescence, 60 min; Potency, µM (top dose mostly 57.5 µM), inactives show top-dose activity change, negative = inhibition, most hits filed as inhibitors; further: nearly all actives have a fitted effect of over 60% in size
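Recombinant glycosomal PGK reaction used 1,3-bisphosphoglycerate generated in-well by GAPDH (100nM final) in 100mM TEA pH 7.6, 5mM MgCl2, 0.01% Tween-20. After 60 minutes at room temperature, ATP was read by Kinase-Glo Plus luminescence end-point.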
GLS inh: inhibitors of human glutaminase (GLS); O94925; Potency, µM (series often up to 45.5 µM), without a hit: top-dose activity change, negative = inhibition, actives largely listed as inhibitors; 410,000 compounds, 0.21% hits; AID 624170; GLS enzymatic activity, qHTS titration
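Human kidney-isoform GLS in 45 mM KH2PO4 pH 8.2, 0.02% Tween-20, with compound, started with 1mM L-Glutamine (added stock). Glutamate oxidase/HRP/Amplex red coupled fluorescence read at start and after 30 min at RT.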
BLM helicase inh: inhibitors of human Bloom syndrome helicase BLM; Potency, µM (series often up to 56.1 µM), without a hit: at the highest dose activity change, negative = inhibition, hits mostly inhibitors; P54132; recombinant BLM DNA unwinding, fluorescence dequenching; 350,000 compounds, 0.2% hits; AID 2528;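 further: plate controls were vehicle for no effect and no enzyme for full effect; nearly all actives have a fitted effect of over 35% in size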
Pin1 inh: inhibitors of human Pin1. Q13526. Pin1 FP peptide displacement, HiFluor488, 10 min. Potency, µM (titrated, usually from 115 µM), inactives show top-dose activity, negative = inhibition, actives largely listed as inhibitors. 390,000 compounds, 0.009% hits; active means well fitted inhibition curve with a large enough effect in the polarisation, with a control signal flat, not every such curve was filed as active; inconclusive means small, poorly fitted or top-dose-only effect, or effect the other way, or a change in a side signal; inactive means no such curve, though single readings can be large or run the other way; the % refers to the polarisation
* marks the source's active call; other numbers are inactive results; i = inactive; ? = inconclusive; & = joins results of further samples; [ ] = dose if it differs, or a comment. Unless noted, the call rests on the fitted dose curve; in most records, active means well fitted curve in the direction sought with a large enough effect; inconclusive means small, poorly fitted or top-dose-only effect, or another doubt; inactive means no such curve, though single readings can be large; an effect the other way counts as inactive or inconclusive. Unless noted, on the % scale 0 is the no-effect control and ±100 the full control effect; potency means the concentration at half of the fitted maximal effect. This is a subset; count on the stated rates, not on these rows.

Sample of the layout, 3 compounds:
The line under a structure holds: PGK inhibitor, GLS inh, BLM helicase inh, Pin1 inh
CN(c1ccccc1)S(=O)(=O)c1ccc(Cl)c(C(=O)OCC(=O)NCc2ccco2)c1
→ ?, -8.9%, -19.4%, -0.2%
CC(C)(C(=O)O)c1ccc([C@H](O)CCCN2CCC(C(O)(c3ccccc3)c3ccccc3)CC2)cc1
→ i, -14.8%, -0.5%, 5.2%
C[C@H](CS)C(=O)N1CCC[C@H]1C(=O)O
→ -11.6%, -1.9%&2.8%, -1.0%&-1.9%&3.5%, -2.2%

Main list, repeating the preview:
The line under a structure holds: PGK inhibitor, GLS inh, BLM helicase inh, Pin1 inh
CN(c1ccccc1)S(=O)(=O)c1ccc(Cl)c(C(=O)OCC(=O)NCc2ccco2)c1
→ ?, -8.9%, -19.4%, -0.2%
CC(C)(C(=O)O)c1ccc([C@H](O)CCCN2CCC(C(O)(c3ccccc3)c3ccccc3)CC2)cc1
→ i, -14.8%, -0.5%, 5.2%
C[C@H](CS)C(=O)N1CCC[C@H]1C(=O)O
→ -11.6%, -1.9%&2.8%, -1.0%&-1.9%&3.5%, -2.2%
CN(C)CCCN1c2ccccc2CCc2ccccc21
→ -4.8%, 25.9%&16.3%, -4.5%, -2.2%
CCSC1=C(C#N)C(=O)n2c1cc1c2CCCC1
→ i, 2.4%, -14.9%, -2.5%
CC(C)SCC(=O)Nc1ncc2c(n1)-c1ccccc1CC2
→ i, 24.4%, -11.4%, ?
CCOC(=O)N1CCC(=C2c3ccc(Cl)cc3CCc3cccnc32)CC1
→ 9.7%, 18.2%&49.8%, -10.4%&-7.5%&-3.9%&-11.7%&-15.4%, ?
O=C(O)[C@@H](O)c1ccccc1
→ -3.4%, -7.0%, -1.5%, 0.7%
Cc1ccc(-c2cc(C(=O)Nc3ccccn3)c3ccccc3n2)o1
→ -10.4%, 153.7%[activator], -23.1%, ?

Record cards (already shown).
`O=C(O)[C@@H](O)c1ccccc1` is entered as PGK inhibitor = -3.4%; GLS inh = -7.0%; BLM helicase inh = -1.5%; Pin1 inh = 0.7%
`C[C@H](CS)C(=O)N1CCC[C@H]1C(=O)O` is entered as PGK inhibitor = -11.6%; GLS inh = -1.9%&2.8%; BLM helicase inh = -1.0%&-1.9%&3.5%; Pin1 inh = -2.2%

Screening data (PubChem BioAssay)
